Assay outcomes from PubChem BioAssay.
Mtb MenB inh = M. tuberculosis MenB inhibitors, primary screen, biochemical, absorbance | MenB enzyme assay, absorbance read-out; some hits fall short of the stated cut | inhibition, %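 (about 12 µg/mL by stock and volumes)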 | 100,000 tested, 0.43% active | AID 540299, 2011;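 active means mean of two replicates above 30%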;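 further: 0% = no compound and 100% = wells with inactive enzyme; the first replicate is given; strong numbers were not always called active; inactives centre near -10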
Target sequence (P9WNP5 whole entry, looked up): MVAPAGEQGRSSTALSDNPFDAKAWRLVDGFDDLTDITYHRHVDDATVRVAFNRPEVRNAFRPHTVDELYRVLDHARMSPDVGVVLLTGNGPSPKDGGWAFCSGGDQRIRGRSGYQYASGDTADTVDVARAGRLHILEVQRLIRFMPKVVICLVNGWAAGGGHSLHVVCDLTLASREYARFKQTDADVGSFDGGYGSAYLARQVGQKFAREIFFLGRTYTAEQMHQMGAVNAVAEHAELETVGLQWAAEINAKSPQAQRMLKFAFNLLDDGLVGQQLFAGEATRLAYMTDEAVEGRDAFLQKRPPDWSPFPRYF
PV pol inh = poliovirus RdRp elongation inhibitors, primary screen, biochemical, fluorescence polarization, total intensity | poliovirus polymerase elongation; hits give low values | % elongation, % (compound at 16.7 µg/mL) | 150,000 tested, 0.66% active | AID 588519, 2011; in the data active means % elongation below about 90%; further: some results filed as inactive read as strong as hits
MbtI inh = MbtI salicylate synthase inhibitors, primary screen, biochemical, fluorescence intensity. P9WFX0. purified MbtI enzyme, fluorescence intensity read-out. inhibition, %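 (about 17 µg/mL by stock and volumes)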. 100,000 tested, 0.89% active. AID 493033, 2011;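 active means above 50% in both replicates, above 80% if mildly self-fluorescent; inactive means the rest, strongly fluorescent compounds included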;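 further: 0% = mean of negative and 100% = mean of positive controls; one replicate is shown; some compounds called inactive have numbers as strong as hits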
Target sequence (P9WFX0 whole entry, looked up): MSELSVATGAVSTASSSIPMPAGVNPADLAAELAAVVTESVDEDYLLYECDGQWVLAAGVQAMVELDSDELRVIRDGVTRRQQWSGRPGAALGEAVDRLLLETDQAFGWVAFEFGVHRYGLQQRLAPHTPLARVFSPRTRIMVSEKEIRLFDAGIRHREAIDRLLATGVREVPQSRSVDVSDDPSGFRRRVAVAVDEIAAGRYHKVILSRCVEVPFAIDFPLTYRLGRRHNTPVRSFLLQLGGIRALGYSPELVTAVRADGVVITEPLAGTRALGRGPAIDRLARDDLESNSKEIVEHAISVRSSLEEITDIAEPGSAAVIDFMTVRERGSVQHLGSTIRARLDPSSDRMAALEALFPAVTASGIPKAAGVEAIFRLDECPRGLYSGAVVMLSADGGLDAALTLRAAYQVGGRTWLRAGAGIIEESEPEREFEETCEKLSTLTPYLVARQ
PV pol inh intensity = also measured in PV pol inh; calls as there; % elongation; measured here: total intensity read-out; formula for this scale not given here;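 total fluorescence in place of polarization; lower means less elongation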
* hit, by the source's call; i = inactive; nt = not tested or not shown; & = joins results of further samples.

Fields – Mtb MenB inh	PV pol inh	PV pol inh intensity	MbtI inh
CC(C)COC(=O)Nc1ccccc1I
    -1	101	102	-3
Cc1ccc(C23CC4CC(CC(CN)(C4)C2)C3)cc1C
    -11	101	103	12
O=C(c1cc(-c2nnc(-c3ccc(Cl)cc3)o2)n(C2CC2)c1)c1ccccc1O
    -32	116	129	-17
O=C(CC1CC2CCC1C2)N(Cc1nnc(-c2ccccc2Cl)o1)C1CC1 (stereo not given)
    -27	106	109	6
COc1cccc(NC(=S)Nc2ccccc2)c1
    -10	102	109	nt
O=C1CSC2N1CCNC21CCCCC1 (stereo not given)
    1	102	105	-12
CCCCOc1ccc(C(=O)Oc2cc(C(=O)OC)nn2C)cc1
    -28	101	102	-10
COc1c2ccoc2cc2oc(=O)ccc12
    0	100	102	1
Cc1ccc(CNC(=O)c2cc(-c3ccccc3)n[nH]2)cc1
    5	105	100	14
Cc1cc(CNCc2nnc3ccccn23)c(C)n1-c1ccnn1C(C)C
    -8	98	102	13
O=C(NCC1CCCO1)c1ccccc1NC(=O)C1CC1 (stereo not given)
    -21	104	101	-4
O=C(COC(=O)CCc1c[nH]c2ccccc12)Nc1cc2[nH]c(=O)[nH]c2cc1Br
    -33	102	99	-5
COc1ccc(Cl)cc1S(=O)(=O)N1CCN(C(=O)c2ccco2)CC1
    14	99	103	5
CSc1ccc(CCNC(=O)c2ccc(CS(=O)c3cccc(C)c3)o2)cc1 (stereo not given)
    -14	101	102	-5
Cc1cc(-c2ccc(S(=O)(=O)N(C)C3CCCCC3)s2)on1
    -4	103	103	-25
O=C(c1cc2ccccc2o1)N1CCN(c2ccccc2)CC1
    1	96	100	-6
O=C(COC(=O)C1=COCCO1)Nc1ccccc1
    5	102	109	-10
CS(=O)(=N/C=C(\C#N)C(=O)c1ccco1)c1ccc(Cl)cc1 (stereo not given)
    3	101	98	12
CC1CCCCC1NC(=O)CN1C(=O)c2cccc(N)c2C1=O (stereo not given)
    -11	105	111	3
CC1=NN(c2cccc(SC(F)F)c2)C(=O)C1
    -70	103	102	-1
O=C(NC(=O)c1c(Cl)cccc1Cl)Oc1ccc(C(F)(F)F)cc1
    -14	106	113	-7
Cc1ccc(S(=O)(=O)N2CCC[C@H]2C(=O)Nc2ccc(-c3nnc4n3CCCCC4)cc2)cc1
    -17	101	109	-13
C=CCN1C(=O)C(C(C)CC)NC1=S (stereo not given)
    0	101	105	1
CCc1ccc(OCC(=O)N(C)C2CCS(=O)(=O)C2)cc1 (stereo not given)
    nt	102	100	0
O=C(CCOc1ccccc1)OCCN1CCCC1=O
    nt	102	107	-5
Cc1cc(C)nc(SC2=CS(=O)(=O)c3ccccc32)n1
    -7	103	100	-3
CC(=O)N1N=C(c2ccccc2)OC12CCCC2
    -8	102	101	114
O=C(Nc1ccccc1)Nc1c[nH]c2ccccc12
    -2	102	104	102
O=C1c2ccccc2C(=O)N1Cc1nc2ccccc2c(=O)n1CCN1CCOCC1
    8	102	100	1
CC(C)(C)C1CCC(N2CCOCC2)CC1 (stereo not given)
    -12	102	105	-13

Reformatted field by field: part of the list above.
compound: O=C(COC(=O)C1=COCCO1)Nc1ccccc1
  Mtb MenB inh: 5 | PV pol inh: 102 | PV pol inh intensity: 109 | MbtI inh: -10

compound: CS(=O)(=N/C=C(\C#N)C(=O)c1ccco1)c1ccc(Cl)cc1 (stereo not given)
  Mtb MenB inh: 3 | PV pol inh: 101 | PV pol inh intensity: 98 | MbtI inh: 12

Next section.
Fields – Mtb MenB inh	PV pol inh	PV pol inh intensity	MbtI inh
O=c1cccc2n1CC1CNC[C@@H]2C1
    -8	101	99	-10
COc1ccc(S(=O)(=O)N2CCN(CCO)CC2)cc1
    13	101	102	1
CC(C)(C)c1cc(/C=C2\SC(=S)NC2=O)cc(C(C)(C)C)c1O
    -119	105	102	6
Cc1cc(C(=O)O)c(C)n1-c1ccccc1
    -3	103	107	-16
CCCSc1ncnc2sc3c(c12)CCCC3
    -7	103	95	nt
Cc1ccc2nc(SCc3nc4ccccc4c(=O)n3CC#N)[nH]c2c1
    -26	45	246	3
CCOC(=O)c1c(C)oc2nc(CSc3nnc(-c4ccccc4)n3-c3ccc(Cl)cc3)nc(N)c12
    -6	103	117	-6
CC(=O)Nc1ccc(C(=O)OCC(=O)N2CCCC2=O)cc1
    -3	102	106	7
O=C(Nc1ccc2nc3n(c(=O)c2c1)CCCCC3)c1ccccc1Cl
    12	100	101	6
Cc1cc(=O)oc2cc(OCC(=O)Oc3ccc4c(c3)OCO4)ccc12
    0	83*	86*	73
O=C(CSc1nc(-c2ccccc2)nc2c1CCCC2)N1CCOCC1
    -13	105	104	nt
O=C(COCc1cc(-c2ccco2)on1)N1CCCc2ccccc21
    1	101	103	-2
COc1ccccc1N(CN1CCCC1=O)C(=O)COc1ccccc1
    -11	105	101	-1
COc1ccc(N2C(=O)CSC23CCC(C)CC3)cc1 (stereo not given)
    6	101	99	17
O=C(CN1CC(=O)Nc2ccccc21)Nc1ccc2c(c1)OCCCO2
    10	109	101	9
CCCCCC(O)CCCC(=O)O (stereo not given)
    0	104&101	102&101	-1
COc1cc(CN2CC=C(c3ccc(F)cc3)CC2)cc(OC)c1
    4	98	101	0
N/C(=N\S(=O)(=O)c1ccc(Br)cc1)c1ccc(Cl)cc1
    nt	103	106	-8
CC(C)n1ncc2c(C(=O)NC3=NCCS3)cc(-c3ccccc3)nc21
    -16	107	106	4
CCn1cc(C(=O)NN)c(=O)c2cc(F)c(N3CCCC3)cc21
    0	102	102	-10
COc1ccc2nc3oc(C(=O)NCCCN4CCc5ccccc5C4)cc3cc2c1
    -14	102	100	117
N#CCc1nc2sc3c(c2c(=O)[nH]1)CCCC3
    nt	106	120	28
COC(=O)N1N=C(CC(C)C)CC1(O)C(F)(F)F (stereo not given)
    3	99	101	38
CCOC(=O)c1[nH]c(CSc2nncs2)c(C(=O)OCC)c1C
    -23	116	124	-4
COc1ccc(C2=Nc3ccccc3NC(C3CC3)=N2)cc1
    -3	103	103	-1
CC(NCC(=O)Nc1ccccc1C(=O)NC1CC1)c1ccc(F)cc1 (stereo not given)
    -11	96	101	11
NC(=O)c1cccc(NC(=O)C(F)(F)F)c1
    6	100	102	-90
COC(=O)c1cc(OC(=O)c2ccc(=O)[nH]c2)cc(C(=O)OC)c1
    9	99	112	-8
COc1ccc(-c2nnn(CC(=O)N(Cc3ccco3)C(C(=O)NCC3CCCO3)c3ccco3)n2)cc1 (stereo not given)
    -7	100	106	1
CNS(=O)(=O)c1cccc(C(=O)OCC(=O)N(C)c2ccccc2)c1
    10	98	104	2
CCc1c(C(=O)NC(C)C2CCCO2)csc1C (stereo not given)
    6	101	106	-2
CCOc1ccc(CNc2ccc(N3CCN(Cc4ccccc4)CC3)cc2)cc1
    -18	99	99	75
CCOc1cc(CN2CCN(C(=O)COc3ccc(C)cc3)CC2)ccc1OC
    -11	100	106	2
Cc1ccc2nc(SCC(=O)O)cc(C)c2c1
    1	100	100	-26
O=C(O)C1CCCCC1C(=O)N1CCCc2ccccc21 (stereo not given)
    nt	103	97	-5
C1Cc2nn3c(c2C1)n1nc2c(c1n1nc4c(c31)CCC4)CCC2
    -22	100	100	-2
COc1ccc(/C=C/C(=O)N2CCNC(=O)C2)c(OC)c1
    -30	nt	nt	2
O=C1C=CC(=O)N1c1ccc2c(c1)OCO2
    23	102	110	99*
O=C(COC(=O)c1cc(-c2ccccc2)nn1-c1ccccc1)Nc1cccc(F)c1
    nt	101	98	-2
CCCOC(=O)C1C2C=CC3(CN(CCc4ccccc4)C(=O)C13)O2 (stereo not given)
    -21	101	100	14
COc1cc(C(=O)O)cc2c1OCCO2
    -25	99	106	-4
CCCNS(=O)(=O)c1ccc2c(c1)SCC(=O)N2
    -2	103	107	-8
Cc1ccc(CNC(=O)CC2CCCC2)cc1
    nt	105	97	0
O=C1OC(c2ccccc2)=N/C1=C\C=C\c1ccccc1
    -6	104	97	7
O=C(NCCc1nc2ccccc2[nH]1)c1ccc(F)cc1
    -17	102	103	-11
C#CCN1CC(OCC)=CC1=O
    -33	103	108	4
CCNc1cc(N)[n+](CC)c2n[nH]c(/N=C/c3cc(Cl)cc(Cl)c3O)c12
    -28	52	236	4
c1ccc(Sc2ncnc3ccsc23)nc1
    -12	101	99	10
CN(C)c1ccc(C(=O)NCCN2C(=O)S/C(=C\c3ccc4c(c3)OCO4)C2=O)cc1
    -37	110	109	-1
CCCC1=C(C(=O)OCC)C(c2ccc(NC(C)=O)cc2)NC(=O)N1 (stereo not given)
    -4	100	102	-79
N#C/C(=C\c1ccc(/C=C(\C#N)S(=O)(=O)c2ccccc2)cc1)S(=O)(=O)c1ccccc1
    4	112	115	-11
CCOC(=O)c1c(SC)nc2c(C(F)(F)F)cccc2c1Oc1ccc(OC)cc1
    2	102	106	-9
CC(C)(CNC(=O)Cc1ccsc1)N1CCOCC1
    -9	104	99	-3
c1ccc2oc(-c3csc(NCC4CCCO4)n3)cc2c1 (stereo not given)
    -26	101	108	25
CC(C(=O)NCc1ccc2c(c1)OCO2)N1CCN(c2ccccc2F)CC1 (stereo not given)
    -23	105	109	-8
CC(=O)Oc1c2c(c[n+](C)c1C)COC(C)(C)OC2
    -15	101	106	4
CCOC(=S)Nc1cccc(C(F)(F)F)c1
    -22	98	92	10
O=C(OCC(=O)N1CCCc2ccccc21)c1cc2ccccc2oc1=O
    -17	104	94	4
Cn1c2ccc(F)cc2c2nnc(NN)nc21
    -23	102	105	-6
COc1c(C(=O)NCCOc2ccccc2)ccc2ccccc12
    -11	104	95	nt

Further records follow.
Fields – Mtb MenB inh	PV pol inh	PV pol inh intensity	MbtI inh
Cc1sc2c(c1C)c(=O)[nH]c1nnc(Nc3ccccc3)n12
    -23	103	109	2
COC(=O)c1sc(N)c(C(=O)OC)c1COC(=O)c1c(C)noc1C
    -24	109	107	-7
Cc1cc(C#N)c(SCC(N)=O)nc1-c1ccc(F)cc1
    -50	101	102	85
Cc1ccc(Cn2cc(CCC(=O)N3CCc4ccccc43)c3ccccc32)cc1
    -13	107	109	-9
O=C(Nc1cc(-c2cccs2)nn1-c1ccc(I)cc1)C1CCC1
    -4	101	106	-2
O=C(CCC(=O)c1cccs1)OC1CCOC1=O (stereo not given)
    5	91	88	i
Cc1ccc(C(=O)/C(=C/N(C)C)Sc2ccc(C(F)(F)F)cn2)cc1
    -5	103	106	2
CC1SCC(=O)N(CC(=O)NCc2ccc(F)cc2)C1=O (stereo not given)
    8	99	106	-5
COc1ccc(-c2csc(Nc3c(C)n[nH]c3C)n2)cc1
    8	102	100	15
CCCN1CCC(NC(=O)c2ccc(F)cc2Cl)CC1
    -3	102	103	-9
CCN(C(=O)CSc1ccc(NC(C)=O)cc1)C1CCS(=O)(=O)C1 (stereo not given)
    7	106	101	8
O=C(CSc1nnc(-c2ccc3c(c2)OCO3)o1)N1CCc2ccccc21
    -23	107	107	-1
O=C(CSc1nc2sc3c(c2c(=O)[nH]1)CCCC3)NCc1cccs1
    -10	101	104	8
COc1ccc(C2=C/C(=C/c3ccccc3)C(=O)O2)cc1
    -40	101	106	4
N#CCSc1ncnc2sccc12
    -9	138	190	12
CCN=c1scc(-c2ccccc2)n1/N=C/c1ccccc1O
    -57	101	104	-3
CCCn1c(=O)n(CC#N)c(=O)c2c1nc(C(F)(F)F)n2CCOC
    -10	106	111	-7
Cc1ccc(S(=O)(=O)CCl)cc1
    nt	103	106	-8
Cc1ccc2nc(Sc3ccccc3)c(/C=C3\SC(=S)N(C)C3=O)c(=O)n2c1
    -13	87	185	0
CC(C)(C)c1nocc1C(=O)O/N=C(\N)c1ccccn1
    -24	104	95	4
CC(C)NC(=O)c1ccc2c(c1)N(Cc1ccccc1F)C(=O)c1ccccc1S2(=O)=O
    -15	101	105	-4
COc1cc(C)ccc1OCC(=O)NC(C)C
    -9	97	102	1
O=C(Cc1ccccc1)N1CCN(c2nc3ccccc3o2)CC1
    -12	105	102	nt
O=C(NCCc1ccccc1)NCCN1CCN(c2ccccc2)CC1
    -32	107	100	-5
CC(=O)Nc1ccc(Nc2cc(Cl)c(S(=O)(=O)C(F)(F)F)cc2S(=O)(=O)C(F)(F)F)cc1
    -7	100	99	6
O=C(O)c1c(NC(=O)C2CCCC2)sc2c1CCC2
    -24	105	124	33
CC(=O)N1CCc2cc(S(=O)(=O)C(C)CC(=O)N(C)c3ccc(C)cc3)ccc21 (stereo not given)
    0	103	102	19
COc1cc(/C=C(\C#N)C(=O)OC(C)C)ccc1O
    -195	115	119	69
COc1ccc(NC(=O)CSc2ccc3ccccc3n2)cc1
    -10	103	96	nt

Only PV pol inh, Mtb MenB inh and PV pol inh intensity, for some of the entries so far:
| SMILES | PV pol inh | Mtb MenB inh | PV pol inh intensity |
| --- | --- | --- | --- |
| CC(=O)Nc1ccc(Nc2cc(Cl)c(S(=O)(=O)C(F)(F)F)cc2S(=O)(=O)C(F)(F)F)cc1 | 100 | -7 | 99 |
| O=C(O)c1c(NC(=O)C2CCCC2)sc2c1CCC2 | 105 | -24 | 124 |
| CC(=O)N1CCc2cc(S(=O)(=O)C(C)CC(=O)N(C)c3ccc(C)cc3)ccc21 (stereo not given) | 103 | 0 | 102 |
| COc1cc(/C=C(\C#N)C(=O)OC(C)C)ccc1O | 115 | -195 | 119 |
| COc1ccc(NC(=O)CSc2ccc3ccccc3n2)cc1 | 103 | -10 | 96 |
